KCNQ2 block: KCNQ2 potassium channel inhibitors, primary screen, cell-based, CHO-K1, FluxOR thallium flux, B-score (AID 2156); 20 min; hits give low values; only compounds with negative scores are shown here; some inactives read as strong as hits; Potassium voltage-gated channel subfamily KQT member 2 (Rattus norvegicus), O88943; B-score at 10 µM; 310,000 tested, 1.1% active;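 active = fluorescence ratio B-score at most minus 3 library SDs, with starting brightness B-score within 2 library SDs, cut at about -5.5 in these data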
Target sequence (O88943 whole entry, looked up): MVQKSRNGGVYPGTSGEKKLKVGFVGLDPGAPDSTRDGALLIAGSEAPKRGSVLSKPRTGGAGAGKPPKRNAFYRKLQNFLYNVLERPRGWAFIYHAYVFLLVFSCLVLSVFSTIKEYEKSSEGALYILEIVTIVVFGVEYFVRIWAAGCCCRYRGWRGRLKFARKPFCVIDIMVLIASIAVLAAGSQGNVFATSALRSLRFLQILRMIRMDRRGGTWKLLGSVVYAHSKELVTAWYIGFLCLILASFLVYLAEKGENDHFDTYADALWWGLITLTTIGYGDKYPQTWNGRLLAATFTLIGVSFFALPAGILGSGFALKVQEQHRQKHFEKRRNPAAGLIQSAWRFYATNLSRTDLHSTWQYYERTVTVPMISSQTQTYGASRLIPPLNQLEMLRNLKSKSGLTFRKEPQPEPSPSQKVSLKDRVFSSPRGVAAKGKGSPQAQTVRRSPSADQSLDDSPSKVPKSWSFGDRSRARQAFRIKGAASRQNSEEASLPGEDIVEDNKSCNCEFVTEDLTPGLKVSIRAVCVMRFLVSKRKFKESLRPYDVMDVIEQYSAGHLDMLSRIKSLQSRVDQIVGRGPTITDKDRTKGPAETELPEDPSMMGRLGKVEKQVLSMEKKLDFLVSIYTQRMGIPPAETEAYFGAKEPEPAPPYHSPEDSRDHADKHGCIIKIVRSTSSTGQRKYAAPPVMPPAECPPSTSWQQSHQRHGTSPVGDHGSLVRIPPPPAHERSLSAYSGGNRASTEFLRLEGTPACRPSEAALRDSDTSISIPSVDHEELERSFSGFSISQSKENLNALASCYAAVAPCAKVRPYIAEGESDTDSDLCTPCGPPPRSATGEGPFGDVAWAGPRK
KCNQ2 block baseline: recorded beside KCNQ2 block, whose call it bears; B-score; measured here: initial fluorescence intensity artifact check;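 brightness before thallium and not channel activity; 0 = typical well and far values either way flag optical interference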
Numbers without * were called inactive; i = inactive.

KCNQ2 block	KCNQ2 block baseline	Molecule
i	-0.76	CC(C)CN(CC(C)C)C(=O)CS(=O)(=O)Cc1ccccc1
i	0.69	COc1ccc(C2C(C(=O)N3CCOCC3)=C(C)NC3=C2C(=O)CC(C)(C)C3)cc1O (stereo not drawn)
i	-1.2	CSc1ccc(C2NC(=O)c3ccccc3N2)cc1 (stereo not drawn)
i	-1	Cc1sc2ncnc(N3CCC(C(=O)Oc4cccc(Cl)c4Cl)CC3)c2c1C
i	-0.08	Cc1sc2nc(N3CCOCC3)[nH]c(=O)c2c1-c1ccccc1
-7.8*	-1.1*	CCCCn1c(SCc2nc3ccccc3s2)nc2ccccc2c1=O
i	-0.73	COc1ccc(/C=C/C(=O)OCC(=O)Nc2ccc(C)cc2)cc1S(=O)(=O)N1CCOCC1
i	2.2	CC(=O)NC1C(=O)N=C(SCC(=O)NC(C)c2ccccc2)NC1=O (stereo not drawn)
i	0.05	O=C(NC1CCCc2ccccc21)c1ccc([N+](=O)[O-])cc1 (stereo not drawn)
i	0.01	Cc1ccc(-c2cc(C(=O)Nc3cccc(S(=O)(=O)N(C)C)c3)c3ccccc3n2)o1
i	0.1	COc1ccc(NS(=O)(=O)c2ccc(N3CCOCC3)c(NC(=O)C(C)C)c2)cc1
i	-1.4	O=C(CN1CCN(CC(=O)Nc2ccc(OCc3ccccc3)cc2)CC1)Nc1ccc(F)cc1
i	1.2	CC(C)NC(=S)N1CCN(Cc2ccc3c(c2)OCO3)CC1
i	2.4	O=C(CSc1ccccc1)Nc1nnc(C2CC2)s1
i	0.37	CC1CC1C(=O)OCC(=O)NCc1ccccc1Cl (stereo not drawn)
i	-2.2	O=C(Cc1ccccc1)N/N=C/c1ccc2cccc(O)c2n1
i	0.03	O=c1[nH]c2ccc(S(=O)(=O)Nc3ccc(Cl)cc3)cc2[nH]1
i	0.59	COc1cccc(/C=C/C(=O)OCC(=O)NCC2CCCO2)c1 (stereo not drawn)
i	0.4	CCOc1ccc(Oc2c(/C=N/NC(=O)COc3ccccc3OC)c(C)nn2-c2ccccc2)cc1
i	1	O=C1c2ccccc2C(=O)N1CCC(c1ccc(F)cc1)c1ccco1 (stereo not drawn)
i	-1.4	CCN(Cc1ccccc1)C(c1ccc(Cl)cc1)c1nnnn1C(C)(C)C (stereo not drawn)
i	-0.55	CCCCn1c(N)c(N(CC(C)C)C(=O)c2ccc(Br)s2)c(=O)[nH]c1=O
i	1.3	CC(NC(=O)NC12CC3CC(CC(C3)C1)C2)C1CCCO1 (stereo not drawn)
-6*	-1*	COc1ccc(-c2cc3nc(C)cc(N4CC(C)CC(C)C4)n3n2)cc1 (stereo not drawn)
i	1.4	C/C(CC(=O)Nc1cccc(Cl)c1C)=N\NC(=O)C(=O)NCC(C)C
i	-0.23	C=Cc1cccc(NC(=O)COc2ccccc2)c1
i	1	Nc1nc(SCC(=O)Nc2ccc(OC(F)(F)F)cc2)[nH]c(=O)c1NC(=O)c1ccc(Br)o1
i	-0.01	Cc1ccc2cccc(S(=O)(=O)N3CCN(c4ccccc4F)CC3)c2n1
i	0.55	COc1ccc(NC(=O)c2cc(C(=O)Nc3ccc(OC)cc3OC)cc([N+](=O)[O-])c2)c(OC)c1
i	-0.02	CC(c1ccco1)N(Cc1ccco1)C(=O)Nc1ccccc1 (stereo not drawn)
i	-1.5	CN(CC(=O)Nc1ccc(C#N)cc1)Cc1ccc(Cl)cc1Cl
i	2.6	CN1CCN(CCOc2ccc(Cl)c(Cl)c2)CC1
i	-2.2	COc1ccc(OC(C)C(=O)Nc2ccc([N+](=O)[O-])cc2)cc1 (stereo not drawn)
i	0.02	Cc1nc2ccc(S(=O)(=O)NC(CC(C)C)C(=O)O)cc2s1 (stereo not drawn)
i	1.5	C=CCn1c(CNC(=O)c2ccco2)nnc1SCC(=O)Nc1cccc(Br)c1
i	1	O=c1c2ccccc2cnn1Cc1n[nH]c(=S)n1-c1ccccc1Cl
i	-0.15	COc1nc(OCCNC(=O)Nc2ccccc2)nc(N(C)C)n1
i	-0.67	COc1ccc(C2CC(=O)C(C(c3ccc(O)cc3)C3C(=O)CC(c4ccc(OC)cc4)CC3=O)C(=O)C2)cc1 (stereo not drawn)
i	-0.22	O=C(CCl)N1CCCC1c1ccc2c(c1)OCCO2 (stereo not drawn)
i	3.9	Cc1ccc(S(=O)(=O)N(C)c2c(C)ccc(S(=O)(=O)Nc3ccncc3)c2C)cc1

Some of the entries above, set out differently:
SMILES | KCNQ2 block | KCNQ2 block baseline
CCOc1ccc(Oc2c(/C=N/NC(=O)COc3ccccc3OC)c(C)nn2-c2ccccc2)cc1 | i | 0.4
O=C1c2ccccc2C(=O)N1CCC(c1ccc(F)cc1)c1ccco1 (stereo not drawn) | i | 1
CCN(Cc1ccccc1)C(c1ccc(Cl)cc1)c1nnnn1C(C)(C)C (stereo not drawn) | i | -1.4
CCCCn1c(N)c(N(CC(C)C)C(=O)c2ccc(Br)s2)c(=O)[nH]c1=O | i | -0.55
CC(NC(=O)NC12CC3CC(CC(C3)C1)C2)C1CCCO1 (stereo not drawn) | i | 1.3
COc1ccc(-c2cc3nc(C)cc(N4CC(C)CC(C)C4)n3n2)cc1 (stereo not drawn) | -6* | -1*
C/C(CC(=O)Nc1cccc(Cl)c1C)=N\NC(=O)C(=O)NCC(C)C | i | 1.4
C=Cc1cccc(NC(=O)COc2ccccc2)c1 | i | -0.23
Nc1nc(SCC(=O)Nc2ccc(OC(F)(F)F)cc2)[nH]c(=O)c1NC(=O)c1ccc(Br)o1 | i | 1
Cc1ccc2cccc(S(=O)(=O)N3CCN(c4ccccc4F)CC3)c2n1 | i | -0.01
COc1ccc(NC(=O)c2cc(C(=O)Nc3ccc(OC)cc3OC)cc([N+](=O)[O-])c2)c(OC)c1 | i | 0.55
CC(c1ccco1)N(Cc1ccco1)C(=O)Nc1ccccc1 (stereo not drawn) | i | -0.02
CN(CC(=O)Nc1ccc(C#N)cc1)Cc1ccc(Cl)cc1Cl | i | -1.5
CN1CCN(CCOc2ccc(Cl)c(Cl)c2)CC1 | i | 2.6
COc1ccc(OC(C)C(=O)Nc2ccc([N+](=O)[O-])cc2)cc1 (stereo not drawn) | i | -2.2
Cc1nc2ccc(S(=O)(=O)NC(CC(C)C)C(=O)O)cc2s1 (stereo not drawn) | i | 0.02
C=CCn1c(CNC(=O)c2ccco2)nnc1SCC(=O)Nc1cccc(Br)c1 | i | 1.5
O=c1c2ccccc2cnn1Cc1n[nH]c(=S)n1-c1ccccc1Cl | i | 1
COc1nc(OCCNC(=O)Nc2ccccc2)nc(N(C)C)n1 | i | -0.15

New compounds follow
KCNQ2 block	KCNQ2 block baseline	Molecule
i	4.2	CCOC(=O)C(CCCCCOc1ccc([N+](=O)[O-])cc1)C(=O)OCC
i	0.35	COc1ccc(N2CCN(Cc3nc4c(c(=O)[nH]c(=O)n4C)n3Cc3cccc(Cl)c3)CC2)cc1
i	1.6	CCOC(=O)C(C)n1nc(/C=C/c2ccccc2)ccc1=O (stereo not drawn)
i	2	Nc1cc(Cl)ccc1C(=O)OCC(=O)N1CCOCC1
i	0.67	COc1ccc(F)cc1S(=O)(=O)Nc1ccc2c(c1)OCO2
i	0.05	Cc1ccc(C(=O)C(NC(=O)c2ccco2)Nc2sc3c(c2C(N)=O)CCCC3)cc1 (stereo not drawn)
i	0.34	CC(=O)Nc1nc2ccccc2n1CCOc1ccccc1Cl
i	-0.35	Cc1cc(C)n(CCCNC(=O)c2cc(COc3ccc(C)c(C)c3)on2)n1
i	0.37	O=C(N/N=C/c1ccc([N+](=O)[O-])cc1)c1cccs1
i	-1.9	O=C(c1ccc(Br)s1)N1CCN(c2ncccn2)CC1
i	1.1	COc1ccc(NC(=O)C2CCN(C(=O)C3CC(=O)N(c4ccc(C)cc4)C3)CC2)c(OC)c1 (stereo not drawn)
i	2.2	O=C(c1ccc(Cl)c(S(=O)(=O)N2CCCC2)c1)N1CCN(c2ncccn2)CC1
i	-0.39	O=C(NCCc1nccs1)C1CCC(=O)N(CCc2ccc(Cl)cc2)C1 (stereo not drawn)
i	0.01	NC(=O)N/N=C1\c2ccccc2-c2c(C(N)=O)cccc21
i	0.47	N[C@@H](CO)c1nnc([C@H](CC(=O)O)NC(=O)C2CCNCC2)o1
i	-0.42	CCOC(=O)c1c(S(=O)(=O)NCC(=O)NCc2ccc(C)cc2)c(C)n(C)c1C
i	0.21	O=C(CCN1C(=O)CSC1=O)Nc1ccccc1
i	-0.13	O=C1NCCCC1C(=O)N/N=C/c1ccccc1 (stereo not drawn)
i	1.1	CC1Cc2ccccc2N1Cc1ccc([N+](=O)[O-])cc1 (stereo not drawn)
i	2.1	Cc1ccc2cc3cc(C(=O)NCc4ccc5c(c4)OCO5)oc3nc2c1
i	-0.06	O=C(CCCn1cnc([N+](=O)[O-])n1)Nc1cc(Cl)ccc1O
i	-0.4	Cc1ccc2cc(C(c3nnnn3Cc3ccccc3)N3CCN(c4ccccc4)CC3)c(=O)[nH]c2c1 (stereo not drawn)
i	0.05	C=CCNC(=S)NNC(=O)c1ccc([N+](=O)[O-])cc1
i	0.23	COC(=O)CSc1nnc(-c2ccccn2)n1Cc1ccco1
i	-0.27	CCNC(=O)CC1SC(=Nc2ccc(C)c([N+](=O)[O-])c2)N(C)C1=O (stereo not drawn)
i	1.8	Cc1ccc(-n2nc3c(c2NC(=O)c2ccc(Br)o2)CSC3)c(C)c1
i	-0.07	CCOc1ccc(N(C(=O)c2cnsn2)C(C(=O)NC2CCCCC2)c2ccncc2)cc1 (stereo not drawn)
i	-1.8	COc1cccc(/C=C/C(=O)NCc2cn3cc(Cl)ccc3n2)c1OC
i	-0.7	Cc1ccc(S(=O)(=O)Nc2cccc3c2CCCC3)cc1
i	0.03	COc1ccc(CN2C(=O)[C@H]3Cc4c([nH]c5ccccc45)C(C)(C)N3C2=O)cc1
i	-0.24	CCCCC(c1nnnn1CC1CCCO1)N1CCN(c2cccc(C)c2C)CC1 (stereo not drawn)
i	0.73	CC(=O)c1ccccc1OCCn1nc(C(=O)O)c2ccccc2c1=O
i	-1.1	CCOC(=O)c1sc2nc(C)nc(NCc3ccccc3OC)c2c1C
i	-0.19	COc1ccc(C(=O)c2sc(Nc3ccccc3)nc2N)cc1OC
i	-1.1	CCCn1c2ccccc2c2nc3ccccc3nc21
-6.5*	0.32*	O=C(COc1ccc(Br)cc1)N1CCc2ccccc2C1
i	-0.88	CC(=O)CSc1nnc(Cc2ccc3c(c2)OCO3)o1
i	-0.32	N/C(=N\OC(=O)C(c1ccccc1)c1ccccc1)c1ccncc1
i	1.7	[O-]/[N+](=C/c1ccc(F)cc1)c1ccc(Cl)cc1
i	2	Cc1cc(Cl)c2oc(C(=O)N3CCN(c4ccncc4)CC3)c(C)c2c1
i	0.8	COC(=O)c1c(C(=O)OC)n(CCCN)c2ccc(C)cc12
i	-1.3	CC(C)(C)NC(=O)C(c1ccc(O)cc1)N(Cc1ccco1)C(=O)Cn1nnc(-c2cccs2)n1 (stereo not drawn)
i	1.9	O=C(COC(=O)[C@@H]1CC(O)CN1S(=O)(=O)c1ccccc1[N+](=O)[O-])c1ccccc1 (stereo partly drawn)
i	-1.4	Cc1cc(C)c2cc(CN(Cc3ccc4c(c3)OCO4)Cc3nnnn3Cc3ccco3)c(=O)[nH]c2c1
i	1.3	CCC(C)NC(=O)CCn1ccc2cc(S(=O)(=O)N3CCCC3)ccc21 (stereo not drawn)
i	0.68	O=C(c1ccccc1)N1CCN(c2ccc([N+](=O)[O-])c(NCC3CCCO3)c2)CC1 (stereo not drawn)
i	-0.83	Cc1ccc(N(Cc2ccccc2)C(=O)c2cccc(S(=O)(=O)N3CCOCC3)c2)cc1
i	-1.8	O=C1c2ccccc2CN1C(CO)c1ccccc1 (stereo not drawn)
i	1.2	Cc1cccc(C)c1NC(=S)NN(Cc1ccccc1)c1ccccc1
i	0.93	COc1ccc(CC(=O)Oc2cc(C)ccc2C)cc1

(next part)
KCNQ2 block	KCNQ2 block baseline	Molecule
i	-1.2	CCOC(=O)/C(=C\c1ccc(OC(F)F)cc1)C1=Nn2c(nnc2-c2ccc(Cl)cc2)SC1
i	-0.1	CCOC(=O)C1C(=O)C=C(c2ccc(OC)cc2)CC1c1ccco1 (stereo not drawn)
i	2	O=C(NCCc1cccs1)C1CCC(=O)N(CCc2cccc(F)c2)C1 (stereo not drawn)
i	-0.11	CCn1c(SCc2nc(-c3cccs3)no2)nnc1-c1c[nH]c2ccccc12
i	0.1	Brc1cccc(-c2nnc(SCc3nc4ccccc4[nH]3)o2)c1
i	-1.1	Cc1nn(-c2ccccc2)c2sc(C(=O)OCn3nnc4ccccc4c3=O)cc12
i	0.75	O=c1[nH]c(NNC(=S)NCc2ccccc2)nc2c1C1(CCCCC1)Cc1ccccc1-2
i	0.59	CCc1cc2c(N[C@@H](Cc3c[nH]c4ccccc34)C(=O)O)ncnc2s1
i	-2.3	CCN(CC)C(=O)CSc1nnc(COc2ccccc2)n1N
i	-0.55	Cc1ccc(CC2C(=O)N(c3ccccc3)C(=O)C2C)cc1 (stereo not drawn)
i	-0.64	c1ccc(-c2noc(CC3CCCCC3)n2)cc1
i	1.9	Cc1ccc(OCC(=O)c2cc(C)n(Cc3ccco3)c2C)c([N+](=O)[O-])n1
i	1.5	CN(CC(=O)Nc1ccc(N2CCOCC2)cc1)C(=O)CCc1ccccc1Cl
i	1.8	C=C(Cl)COc1ccc2c(CCC)cc(=O)oc2c1
i	-1.9	CCC1Sc2ccc(S(=O)(=O)CCC(=O)Nc3ccc(OC(F)(F)F)cc3)cc2NC1=O (stereo not drawn)
i	-0.85	Cc1cc(-c2csc(NC(=O)c3ccc(S(=O)(=O)N(C)C)cc3)n2)c(C)n1-c1ccccc1
i	1.1	Cc1ccc(NC(=O)CN(C)CC(=O)Nc2ccc(N3CCOCC3)cc2)c([N+](=O)[O-])c1
i	0.62	Cc1ccc(N2CC(C(=O)OCC(=O)NNC(=O)c3ccccc3)CC2=O)cc1 (stereo not drawn)
i	-0.25	C/C(=C\c1ccccc1)CN1CCN(c2ccccc2F)CC1
i	0.03	Cc1ccc(CON=C2CCN(c3ncc(C(F)(F)F)cc3Cl)CC2)cc1
i	-0.96	CCN(CCNC(=O)c1cc(C)nn1-c1ccccc1)c1ccccc1

This is a subset; rates above refer to the full screens.
